Vif TR-FRET – inhibitors of Vif binding to APOBEC3G peptide, primary screen, biochemical, TR-FRET, GST-Vif 1-94, biotin-A3G peptide, dose response retest (AID 1117319) | TR-FRET GST-Vif / biotin-A3G peptide binding; higher % means a stronger effect; test concentration not given here; strong numbers were not always called active | inhibition, %, or IC50 in µM where a hit was titrated | actives 0.57% (n = 260,000);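 active = above the screen mean plus three standard deviations and confirmed in dose response; inconclusive = results disagree or hit not tested in dose response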;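 note: Vif residues 1-94 fused to GST binding biotinylated APOBEC3G peptide 110-148; 0% = full assay without inhibitor and 100% = GST in place of GST-Vif; retest series ran down from 100 µM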
AF4-AF9 inh – inhibitors of human MLL-AF4/AF9 interaction; AID 651704; P42568; AlphaScreen, biotin-AF4 peptide binding to FLAG-AF9; actives 0.47% (n = 350,000); inhibition, % at 10 µM;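 active = every replicate reaching a set inhibition limit, whatever the replicate mean, cut at about 25% in these data; inconclusive = mean inhibition reaches that limit but some replicates miss it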;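 note: 0% = plate neutral control median and 100% = total signal loss; the record names both 10 and 1 µM as test concentration; the first replicate is given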
Target sequence (P42568 whole entry, looked up): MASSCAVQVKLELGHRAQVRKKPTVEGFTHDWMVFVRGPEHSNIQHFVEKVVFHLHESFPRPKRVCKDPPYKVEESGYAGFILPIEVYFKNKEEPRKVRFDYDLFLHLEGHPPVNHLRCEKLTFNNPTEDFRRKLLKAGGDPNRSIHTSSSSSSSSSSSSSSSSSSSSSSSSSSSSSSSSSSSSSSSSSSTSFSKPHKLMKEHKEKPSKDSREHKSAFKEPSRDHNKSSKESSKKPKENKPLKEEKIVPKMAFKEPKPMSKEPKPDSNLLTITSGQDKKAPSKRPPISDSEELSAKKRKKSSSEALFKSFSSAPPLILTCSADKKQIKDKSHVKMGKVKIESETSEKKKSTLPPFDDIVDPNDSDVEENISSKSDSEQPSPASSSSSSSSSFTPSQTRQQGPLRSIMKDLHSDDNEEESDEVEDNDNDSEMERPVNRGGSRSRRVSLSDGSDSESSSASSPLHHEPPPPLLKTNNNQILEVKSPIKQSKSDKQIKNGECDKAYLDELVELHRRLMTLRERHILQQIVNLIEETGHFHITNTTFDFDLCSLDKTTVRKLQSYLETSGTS
Beta apoptosis – beta cell apoptosis inhibition. INS-1E cytokine-induced death, ATP luminescence, 48 h; percent of positive-control rescue, neutral wells zero. protection from apoptosis, % (concentration not given with the values). actives 0.8% (n = 300,000);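 active = all replicates at 75% or more, or half of them and the mean; inconclusive = half reach 75% but not the mean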;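 note: 0% = cytokine-treated negative control wells and 100% = positive control rescue; higher means more ATP so stronger rescue from cytokine killing; wells of about 40 µL received 100 nL stock; the first replicate is given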
T cruzi repl – blocks replication of Trypanosoma cruzi; actives 1.4% (n = 300,000); T. cruzi beta-gal in NIH3T3, luminescence, 90 h; AID 1885; inhibition, % (concentration not given with the values);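 active = mean inhibition across valid replicates above about 55%, limit read from the data; inconclusive = mean below that limit but half or more replicates reach it; inactive = mean below it, under half of replicates reach it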;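 note: signal also drops with host cell toxicity which is not excluded here; 0% = plate median of DMSO wells and 100% = zero luminescence signal; higher percent means less beta-gal luminescence so fewer parasites; stock transfer was 50 nL into about 50 µL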
Bfl-1 A1 inh – inhibitors of the anti-apoptotic protein A1, read as caspase activation; MEF A1-2A-BIM cells, Caspase-Glo 3/7 luminescence, 3 h; percent of clofoctol response, vehicle zero; caspase activation, % (no concentration beside the values); actives 0.066% (n = 330,000); AID 2462;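 active = over half of replicate activation scores above 10%, or exactly half above 10 with the replicate mean above 10; inconclusive = replicate mean below 10 yet half the replicates above 10; inactive = over half of replicates below 10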;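 note: wells of about 30 µL received 50 nL stock; many hits fall short of the cut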
Calb FLC – affects C. albicans growth with fluconazole; C. albicans CaCi-2 (fluconazole-resistant clinical isolate) + fluconazole, Alamar Blue growth, 48 h; growth inhibition, % (no concentration beside the values); actives 0.57% (n = 300,000);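 active = most replicates above 75%; inconclusive = exactly half above 75%; inactive = most below 75%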;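 note: all wells also contain fluconazole at 8 µg/ml as a sub-toxic cotreatment; 0% = median of DMSO wells and 100% = median of geldanamycin control wells; wells of about 8 µL received 7.5 nL stock; the first replicate is given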
RanGTP-Imp inh – disruptors of Ran-importin-beta complex formation – biochemical, FRET, CFP-Ran, YFP-importin-beta, homogeneous, primary screen | cell-free CFP-Ran/YFP-importin-beta FRET ratio | inhibition, % (concentration not given with the values) | actives 1.1% (n = 300,000);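 active = most replicates above 15%; inconclusive = exactly half above 15%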;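 note: 0% = DMSO wells and 100% = Ran loaded with GDP instead of GTP; wells of about 40 µL received 100 nL stock; the first replicate is given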
LANA-H2B inh – blocks KSHV LANA binding to histone H2A/H2B. actives 0.6% (n = 320,000). cell-free LANA-H2A/H2B peptide, fluorescence polarization. inhibition, % (test concentration not listed); in the data active = inhibition mostly above about 10%, no sharp cut-off; inactive = mostly below about 6.7%;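 note: stock transfer was 7.5 nL into about 10 µL; 0% = median of vehicle wells and 100% = median of positive control wells; one replicate is shown; the record names a cut of 25% in any replicate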
* marks the source's active call; other numbers are inactive results; u = inconclusive; x = not tested or not shown; & = joins results of further samples. Compounds were not picked by outcome. About 4.3% of those tested had a hit in this group.

Below each compound: Vif TR-FRET	AF4-AF9 inh	Beta apoptosis	T cruzi repl	Bfl-1 A1 inh	Calb FLC	RanGTP-Imp inh	LANA-H2B inh
> C=CC[C@H](CC(=O)N(CCO)Cc1ccccc1)C(=O)N[C@H](COC(=O)[C@@H](CC=C)CC(=O)OC(C)(C)C)Cc1ccccc1
→ x	2.8	-3	x	1.2	x	x	3.1
> CCC(C(=O)OCC(=O)N(CC)c1c(N)n(Cc2ccccc2)c(=O)[nH]c1=O)c1ccccc1 (stereo not drawn)
→ 12%	-0.4	-5	x	-1.3	x	x	-3.2
> O=C(O)CSc1nc2ccccc2o1
→ -4%	x	-9	-16	1.2	7	-2.0	-0.5
> Cc1cc(=O)n2nc(N3CCC(C(=O)N4CCN(C)CC4)CC3)sc2n1
→ -4%	x	4	3	-0.4	-8	-2.1	2.2
> O=C(Cn1nnc(-c2ccccc2Cl)n1)NCc1ccc2c(c1)OCO2
→ -3%	x	-5	-3	0.1	-25	-3.3	1.5
> COc1ccc(C(=O)N2CCN(c3ccc(C(C)=O)cc3F)CC2)cc1S(=O)(=O)NC1CC1
→ 6%	-0.1	1	x	0.0	x	x	-8.5
> CNC(=O)c1c(NC(NC(=O)c2ccco2)C(=O)c2ccc(Cl)cc2)sc2c1CCCC2 (stereo not drawn)
→ 1%&11%	5.3	x	-8	0.5	5	3.4	-2.4
> CONC(=O)C1CCN(C(=O)OCc2ccccc2)CC1
→ 3%	x	2	1	1.9	-13	-0.1	1.0
> CC12CCC(=O)N1C(C(=O)NCCN1C(=O)S/C(=C\c3ccc(F)cc3)C1=O)CS2 (stereo not drawn)
→ 8%	-5.9	0	-15	-0.2	-1	1.8	-2.0
> Cc1cc(C)n(-c2nc3nonc3nc2-n2nc(C)cc2C)n1
→ 3%	x	-3	-10	-1.6	17	-1.7	-3.4
> CC1Oc2ccccc2N(CC(=O)Nc2ccccc2F)C1=O (stereo not drawn)
→ x	0.0	-5	-4	0.6	5	0.2	4.8
> CCC(=O)Nc1ccc(-c2csc(C)n2)cc1
→ -10%	1.1	-4	4	-1.5	-1	4.4	-0.6
> CCCN(C(=O)c1ccc([N+](=O)[O-])c(C)c1)c1c(N)n(Cc2ccccc2)c(=O)[nH]c1=O
→ -6%	2.1	0	x	-1.0	x	x	12
> COc1ccc(S(=O)(=O)N2CCOC2CNC(=O)C(=O)NCCCn2ccnc2)cc1OC (stereo not drawn)
→ 23%	-3.2	-2	-9	0.1	4	1.0	-1.7
> Cc1sc(=NC(=O)c2ccco2)n(C)c1-c1ccc(F)cc1
→ -5%	x	-9	6	0.2	2	1.3	1.8
> COc1ccc(NS(=O)(=O)c2cccc(C(=O)N3CCCC3)c2)cc1
→ 7%	1.3	-1	-4	-0.2	4	2.9	5.3
> COc1ccc(N2CCN(c3ccc(NC(=O)C4CCCCC4)cc3C#N)CC2)cc1
→ -3%	x	1	8	-0.1	4	-5.4	0.6
> COc1ccc(S(=O)(=O)Nc2ccccc2C(=O)NC(C)C)cc1OC
→ 3%	x	-9	-16	0.4	x	3.2	-1.5
> Cc1cc(C)cc(NC(=O)CCCSc2nc3ccccc3[nH]2)c1
→ 1%	x	-3	26	-0.4	0	-5.0	-2.7
> CC(C)Cc1nnc(NC(=O)c2cc([N+](=O)[O-])ccc2N2CCOCC2)s1
→ x	-9.8	4	4	-0.7	5	u	0.2
> Cc1ccccc1Cn1cc(NC(=O)c2noc(C(C)C)c2[N+](=O)[O-])cn1
→ x	-5.6	1	-6	-0.9	-2	2.4	9.9
> CCS(=O)(=O)N1CCCC(C(=O)NCCc2ccccc2)C1 (stereo not drawn)
→ -3%	x	8	-9	0.2	-9	0.7	-3.4
> O=C(Cn1cc[n+](Cc2ccccc2)c1)c1ccc([N+](=O)[O-])cc1
→ x	2.3	25	-13	0.2	-11	11	-0.6
> O=C(Nc1ccc(S(=O)(=O)Nc2cnc3ccccc3n2)cc1)c1cc(F)c(F)cc1Cl
→ x	-2.6	2	9	0.2	13	-0.4	22*
> COc1ccc(OC)c(NC(=O)CSc2nnc(-c3cnccn3)n2C)c1
→ x	-0.6	-4	0	-0.7	-1	1.5	-7.2
> Brc1ccccc1C1Nc2cccc3cccc(c23)N1
→ x	6.8	x	-6	0.7	0	-2.2	4.6
> COc1ccc(N(C)S(=O)(=O)c2cccc(C(=O)NC3CCC(C)CC3)c2)cc1 (stereo not drawn)
→ x	2.9	-6	27	-0.6	u	2.0	0.5
> Oc1ccccc1-c1cc(-c2ccccc2)n[nH]1
→ x	-0.4	-3	x	-8.0	x	x	2.1
> O=[N+]([O-])c1ccccc1/C=N\N1CCN(Cc2ccccc2Cl)CC1
→ x	9.7	0	9	0.8	-6	-1.0	-1.7
> Cn1c(C(=O)OC(C(=O)NC2CCCC2)c2cccnc2)cc2sccc21 (stereo not drawn)
→ -2%	x	x	65*	0.6	12	-2.1	1.4
> O=C(/C=C/c1c(F)cccc1Cl)N1CCOCC1
→ x	0.7	-1	-5	0.0	19	2.0	-1.9
> COCCNC(=O)CC(c1ccccc1)c1ccccc1
→ 5%	x	-5	-5	1.6	-2	-0.5	4.9
> CCN(CC(=O)Nc1ccccc1C(F)(F)F)C(=O)c1cc(S(=O)(=O)N2CCCCCC2)ccc1OC
→ 1%	-16	2	18	0.3	-1	0.0	-3.5
> COc1ccc(-c2cc(C(=O)NC3CCCCC3)no2)cc1OC
→ 2%	0.1	-4	-9	0.2	17	-0.6	1.0
> O=C(CC12CC3CC(CC(C3)C1)C2)NC1CC1
→ x	x	-4	-14	-0.5	2	1.3	-1.4
> CCC(C(=O)Nc1ccc2[nH]ncc2c1)c1ccccc1 (stereo not drawn)
→ x	-5.6	3	-13	0.5	-4	-0.1	1.3
> CCN(C(=O)c1cc2cc(OC)ccc2oc1=O)c1ccccc1
→ 23%	x	-3	7	-0.2	2	0.3	-2.0
> O=C(Nn1c(C2CCC2)nc2ccccc2c1=O)c1cccs1
→ 25%	-7.7	-4	32	-0.1	16	1.6	2.2
> CC(=O)Nc1ccc(N/C(=N\S(=O)(=O)c2ccccc2)c2ccccc2)cc1
→ x	-1.2	-9	-3	-0.5	x	x	-0.5
> c1ccc(-c2nnc(SCCC3OCCCO3)o2)cc1
→ 17%	x	-1	-9	-4.2	5	-6.9	-0.4
> CNC(=S)Nc1ccc([N+](=O)[O-])cc1
→ x	1.7	-1	4	1.0	-11	2.8	3.9
> CCN(CC)S(=O)(=O)c1ccc(Cl)c(NC(=O)CSc2nnc(-c3cccs3)o2)c1
→ x	x	-3	-7	0.0	-8	3.0	-1.4
> CCCNC(=O)Nc1cc(C)on1
→ 5%	x	x	-11	0.0	-1	3.5	0.0
> O=C(O)c1ccc(C(=O)Nc2cccc3ccccc23)c(C(=O)O)c1
→ 2%	1.7	x	-10	0.8	2	u	-1.2
> O=C(NCc1ccco1)c1ccc(COCC(F)(F)C(F)F)cc1
→ 8%	x	1	-4	1.4	4	6.5	4.7

Three of these compounds, reformatted:
compound	Vif TR-FRET	AF4-AF9 inh	Beta apoptosis	T cruzi repl	Bfl-1 A1 inh	Calb FLC	RanGTP-Imp inh	LANA-H2B inh
CNC(=S)Nc1ccc([N+](=O)[O-])cc1	x	1.7	-1	4	1.0	-11	2.8	3.9
CCN(CC)S(=O)(=O)c1ccc(Cl)c(NC(=O)CSc2nnc(-c3cccs3)o2)c1	x	x	-3	-7	0.0	-8	3.0	-1.4
CCCNC(=O)Nc1cc(C)on1	5%	x	x	-11	0.0	-1	3.5	0.0

Remaining list, next part:
Below each compound: Vif TR-FRET	AF4-AF9 inh	Beta apoptosis	T cruzi repl	Bfl-1 A1 inh	Calb FLC	RanGTP-Imp inh	LANA-H2B inh
> On1c(-c2ccco2)nc2c1CCc1nonc1-2
→ 4%	x	0	4	-0.8	-5	0.6	-3.5
> COc1ccc(-n2nc(C(=O)Nc3ccc4c(c3)OCO4)c3ccccc3c2=O)cc1
→ 19%	x	9	16	-0.6	16	5.6	-6.9
> COc1cccc(C(=O)NCCS(=O)(=O)N2CCOCC2)c1
→ x	4.1	-2	4	-0.5	-4	u	-0.7
> O=C(COC(=O)c1cccc(Br)c1)NCC1CCCO1 (stereo not drawn)
→ -8%	6.4	-1	x	-1.1	x	x	-1.6
> O=c1cc(-c2ccc(O)cc2)oc2cc(O)c(C3OC(CO)C(O)C(O)C3O)c(O)c12 (stereo not drawn)
→ 7.1µM*	5.0	x	-17	0.4	-1	6.7	1.4
> COc1ccc(CC(=O)Nc2ccc(OC)nc2)cc1
→ 1%	1.4	0	0	0.0	2	5.1	-5.3
> Cc1ccccc1OCc1nc(C#N)c(N2CCCC2)o1
→ x	4.1	-5	15	0.5	37	-1.0	-2.1
> CS(=O)(=O)N(CC(=O)N1CCCC1)Cc1ccc(Cl)c(Cl)c1
→ x	-2.3	4	0	0.4	7	5.9	-0.7
> Cc1ccc(N(Cc2ccccc2)C(=O)c2ccc(C)c(S(=O)(=O)N3CCOCC3)c2)cc1
→ -13%	2.7	4	x	-0.9	x	x	-5.8
> CCOC(=O)C1=C(COC(=O)c2ccco2)NC(=O)NC1CC (stereo not drawn)
→ x	29*	4	x	1.5	x	x	-1.4
> COC(=O)c1ccc(N2CCOCC2)c(F)c1
→ -3%	x	-3	-18	-0.2	5	0.0	1.8
> O=C(N/N=C/c1c(F)cccc1Cl)C1CC1
→ -2%	2.7	0	-7	-0.8	-5	-2.2	2.3
> CCN(CC)C(c1ccc(F)cc1)c1nnnn1CC1CCCO1 (stereo not drawn)
→ 3%	x	-3	14	0.4	24	3.1	2.8
> CC1=CC(C)(C)N(S(=O)(=O)c2ccc(F)cc2)c2ccccc21
→ 20%	-39	-3	-29	0.8	13	u	-8.8

Source: PubChem (several laboratories)
